VDR inhibitor: blocks the human vitamin D receptor; 400,000 tested, 0.93% active; P11473; VDR-SRC2-3 peptide fluorescence polarization, 2 h; Potency, µM, inactives show max response, negative = inhibition, usual class: inhibitors; active means well fitted inhibition curve with a large enough effect; inconclusive means small, poorly fitted or top-dose-only effect, or another doubt; inactive means no such curve, though single readings can be large or run the other way; further: series mostly up to about 120 µM
Target sequence (P11473 whole entry, looked up): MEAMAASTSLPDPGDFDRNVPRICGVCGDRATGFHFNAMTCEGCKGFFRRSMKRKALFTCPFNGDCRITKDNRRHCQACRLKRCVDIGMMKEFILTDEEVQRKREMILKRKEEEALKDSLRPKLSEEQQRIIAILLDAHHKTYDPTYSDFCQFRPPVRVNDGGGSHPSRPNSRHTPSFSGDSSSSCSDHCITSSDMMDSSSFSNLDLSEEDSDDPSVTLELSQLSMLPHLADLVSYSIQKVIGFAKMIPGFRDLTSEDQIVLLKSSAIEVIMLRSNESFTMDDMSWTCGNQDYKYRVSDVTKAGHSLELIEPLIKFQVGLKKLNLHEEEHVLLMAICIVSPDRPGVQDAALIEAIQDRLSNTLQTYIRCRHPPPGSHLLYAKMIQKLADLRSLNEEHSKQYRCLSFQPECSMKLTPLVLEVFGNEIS
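Two reagent solutions held at 4 deg C in the dark were dispensed, compounds pinned at 23 nl, and the mixture incubated 2 h at room temperature. Read-out: fluorescence polarization of VDR–SRC2-3 peptide binding.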
An asterisk follows results filed as active; ? = inconclusive; & = joins results of further samples; [ ] = remark or other dose. On the % scale 0 is the no-effect control and ±100 the full control effect; potency means the concentration at half of the fitted maximal effect. Not all compounds are listed, so the mix of outcomes need not match the whole.

VDR inhibitor	Structure
-25%	CCCCn1c(N)c(N(CCC(C)C)C(=O)C2CCCN(C(=O)c3ccc(Cl)cc3)C2)c(=O)[nH]c1=O (configuration not stated)
-13%	CN(C(=O)CSc1nnc(NCc2ccccc2)s1)C1CCS(=O)(=O)C1 (configuration not stated)
0%&12%	Cc1ccc(S(=O)(=O)NCCS(=O)(=O)N2CCN(c3ccccc3)CC2)cc1
-9%	COc1ccc(CCNc2oc(-c3ccco3)nc2C#N)cc1
-9%	O=C(C1CC1)N1CCC(Oc2cccc(C(=O)N3CCCCC3CCO)c2)CC1 (configuration not stated)
0%	O=C(CNC(=O)c1ccco1)OCc1ccc(Br)cc1
8%	O=c1[nH]c(CN(CCc2ccccc2)S(=O)(=O)c2ccc(Cl)cc2)nc2ccccc12
-6%	COc1ccc2cc(C(N)=O)c(=Nc3ccccc3)oc2c1
-8%	CCC(Sc1nc(N)c(NC(=O)c2ccc(OC)cc2)c(=O)[nH]1)C(=O)O (configuration not stated)
-8%	COc1ccccc1CCNC(=O)c1ccoc1C
12%	N#Cc1c(-c2ccccc2)nc2n1CCS2
9%	C/C(=N/N=C/c1ccccc1O)c1ccccc1O
4%	COc1cccc(CN(C(=O)c2cccc(C)c2)C2CCS(=O)(=O)C2)c1 (configuration not stated)
2%	O=C1C=C(c2cccc(Br)c2)C[C@@H](c2ccc3c(c2)OCO3)C1
-27%	Cc1nn(CC(=O)N/N=C/c2ccc3c(c2)OCO3)c(C)c1Br
2%	O=C(Nc1ccc(N2CCCCC2)cc1)c1cncc(Br)c1
-11%	CC1CCc2c(sc(NC(=O)c3ccc(N4C(=O)CCC4=O)cc3)c2C(N)=O)C1 (configuration not stated)
-7%	c1ccc(Nc2nc3ccccc3o2)cc1
-5%	CC(C)c1nnc(NC(=O)CCS(=O)(=O)Cc2ccccc2)s1
-5%	CCCCNC(=S)N/N=C/c1cccc(OCC)c1O
7%	O=C1/C(=C/c2cccc3ccccc23)CCCc2ccccc21
-3%	O=C(CC(O)c1ccccc1)Nc1ccccn1 (configuration not stated)
-8%	Fc1ccc(N2CCN(C3=Nc4cccc5cccc3c45)CC2)cc1
18%	O=C(Nc1ccccc1N1CCOCC1)c1ccc(OCc2cscn2)cc1
-6%	O=C(NC(=S)NCc1ccccc1)C1CC1
4%&3%	O=C(c1cccc(C(F)(F)F)c1)C1CCCN(Cc2cccc(OCCO)c2)C1 (configuration not stated)
-17%	O=C(O)C1C2C=CC(C3CC23)C1C(=O)O (configuration not stated)
1%	CC1CCN(S(=O)(=O)c2cnc[nH]2)CC1
0%	CCN(CC)CCCNC(=O)c1nn(C)c2c1CS(=O)(=O)c1ccccc1-2
7%	CCOC(=O)c1csc(NC(=O)CN2CCOCC2)n1
3%	Cc1ccc(NC(=O)c2ccnc(C(C)(C)C)c2)cc1
-8%	COc1ccccc1Cn1c(=S)[nH]c2cc(C(=O)N3CCC(C(N)=O)CC3)ccc2c1=O
-6%	CCCN(C(=O)CSc1nnnn1C)C1CCS(=O)(=O)C1 (configuration not stated)
-10%	CCC(=O)c1ccc(OCC(=O)OCC(=O)NCc2cccs2)cc1
-7%	CCNc1nc(NCC)n2c(SCC(=O)Nc3ccccc3F)nnc2n1
-10%	CS(=O)(=O)N1CCCC(C(=O)Nc2ccc(F)cc2F)C1 (configuration not stated)
16%	Cc1cc(C)n2nc(SCc3ccc(C#N)cc3)nc2n1
0%	COc1cnn(-c2ccccc2)c(=O)c1N(C)C
-6%	NC(=O)c1ccc(N2CCN(S(=O)(=O)c3cccs3)CC2)c([N+](=O)[O-])c1
3%	O=C(CCc1ccccc1)NCCCN1CCOCC1
-4%	COc1ccc(NC(=S)NNC(=O)c2cccnc2)cc1OC
10%	O=C(Nc1cccc(C(=O)OCc2cc(=O)n3c4c(sc3n2)CCCC4)c1)c1cccc(F)c1
-3%	NS(=O)(=O)c1ccc(CNC(=O)c2ccc(Cl)cc2[N+](=O)[O-])cc1
-17%	Cc1cc(C(=O)COC(=O)c2ccc(O)cc2)c(C)n1Cc1ccco1
2%	Cc1c(Cl)c([N+](=O)[O-])nn1CC(=O)NCCCN1CCOCC1
-19%	Cc1nc(-c2ccc(F)cc2)c(CC(=O)N2CCN(S(=O)(=O)c3cccc(F)c3)CC2)s1
-1%&-1%&11%&-5%	c1ccc(C2CN3CCSC3=N2)cc1 (configuration not stated)
20%	O=c1[nH][nH]cc1C=Nc1ccccc1O
-8%	COc1c(F)c(F)c(C(=O)O)c(Nc2ccccc2)c1F
1%	COc1ccc(NC(=O)Nc2nnc(-c3ccccc3F)s2)cc1
4%	CC(C)(C)C(=O)OC/C(N)=N/OC(=O)c1ccc(Cl)c(Cl)c1
22%	CCOc1ccccc1Nc1ncnc2ccccc12
-4%	N#Cc1ccc(OCC(=O)Nc2ccc3[nH]c(=O)[nH]c3c2)cc1
-4%	COc1ccc(NC(C)=O)cc1S(=O)(=O)Nc1ccc2c(c1)OCCO2
-3%	Cc1csc(NC(=O)c2cccn2C)n1
9%	O=C(COC(=O)C1COc2ccccc2O1)NC1CCS(=O)(=O)C1 (configuration not stated)
-1%	CCOc1ccc(NC(=O)C/C(C)=N/NC(=O)Cc2ccc(Cl)cc2)cc1
2%	O=C(O)c1ccccc1C(=O)NCc1cccnc1
16%	CCc1ccc(NC(=O)C2CCN(S(=O)(=O)c3ccc4[nH]c5c(c4c3)CCCCC5)CC2)cc1
7%	Cc1nn(Cc2ccc(C(=O)NN)cc2)c(C)c1Cl

The list continues.
VDR inhibitor	Structure
26%	COc1cccc(Cn2c(=O)c(-c3cccs3)nc3cnc(N4CCNCC4)nc32)c1
7%	CCNc1nc(NCC)nc(OCCOC(=O)Nc2ccccc2)n1
4%	CCC(Cc1ccccc1)NC(=O)C1=C(C)C(=O)OC12CCC(C)CC2 (configuration not stated)
-4%	COc1ccc(S(=O)(=O)N2CCC(C(=O)NCc3ccncc3)CC2)cc1Cl
5%	CCOc1ccc(OCC(=O)OC(C)C(=O)NC2CCCC2)cc1 (configuration not stated)
2%	CN(C(=O)Nc1cnc2ccccc2c1)c1ccccc1
-17%	Cc1nn(Cc2ccccc2)c2c1C(c1ccncc1)C(C#N)=C(N)O2 (configuration not stated)
8%	Cc1nc(C(=O)O)cc2c1[nH]c1ccccc12
-23%	c1ccc(CCn2nnc3ccccc32)cc1
5%	COc1ccc(NC(=O)CN2CCN(S(=O)(=O)N(C)C)CC2)cc1
6%	COC(=O)c1c(C(=O)OC)c(C)n(Cc2cccnc2)c1C
33%[activator]	COc1ccc(NC(=O)Nc2sc(NS(=O)(=O)c3ccccc3)nc2C)cc1
-13%	O=C(Nc1ccccc1)c1cccc(=O)o1
-12%	O=C1CSC(=O)N1CC(O)COc1ccc(Cl)cc1 (configuration not stated)
8%	CCc1ccc(C2c3c(-c4cc(C)ccc4O)n[nH]c3C(=O)N2CCO)cc1 (configuration not stated)

Sorted by length of the SMILES (falling): part of the list above
VDR inhibitor	Structure
16%	CCc1ccc(NC(=O)C2CCN(S(=O)(=O)c3ccc4[nH]c5c(c4c3)CCCCC5)CC2)cc1
26%	COc1cccc(Cn2c(=O)c(-c3cccs3)nc3cnc(N4CCNCC4)nc32)c1
8%	CCc1ccc(C2c3c(-c4cc(C)ccc4O)n[nH]c3C(=O)N2CCO)cc1 (configuration not stated)
-4%	COc1ccc(S(=O)(=O)N2CCC(C(=O)NCc3ccncc3)CC2)cc1Cl
33%[activator]	COc1ccc(NC(=O)Nc2sc(NS(=O)(=O)c3ccccc3)nc2C)cc1
-4%	COc1ccc(NC(C)=O)cc1S(=O)(=O)Nc1ccc2c(c1)OCCO2
-17%	Cc1nn(Cc2ccccc2)c2c1C(c1ccncc1)C(C#N)=C(N)O2 (configuration not stated)
5%	COc1ccc(NC(=O)CN2CCN(S(=O)(=O)N(C)C)CC2)cc1
9%	O=C(COC(=O)C1COc2ccccc2O1)NC1CCS(=O)(=O)C1 (configuration not stated)
6%	COC(=O)c1c(C(=O)OC)c(C)n(Cc2cccnc2)c1C
7%	CCNc1nc(NCC)nc(OCCOC(=O)Nc2ccccc2)n1
7%	Cc1nn(Cc2ccc(C(=O)NN)cc2)c(C)c1Cl
2%	CN(C(=O)Nc1cnc2ccccc2c1)c1ccccc1
8%	Cc1nc(C(=O)O)cc2c1[nH]c1ccccc12
2%	O=C(O)c1ccccc1C(=O)NCc1cccnc1
-13%	O=C(Nc1ccccc1)c1cccc(=O)o1
-23%	c1ccc(CCn2nnc3ccccc32)cc1
-3%	Cc1csc(NC(=O)c2cccn2C)n1

(listing goes on)
VDR inhibitor	Structure
-15%	Cc1nc(C)c(-c2csc(N)n2)s1
-2%	CCOC(=O)CN(C(=O)COc1nc(-c2ccccc2)cc(C)c1C#N)c1ccc(C)cc1
5%	c1ccc(CN2CCN(c3nc(-c4ccccc4)nc(-n4ccnc4)n3)CC2)cc1
-6%	Cn1c(Cc2cccs2)nnc1SCc1nc2ccccc2[nH]1
-12%	COc1ccc(NC(=O)C(OC(=O)c2cnc(C)cn2)c2ccccc2)cc1Cl (configuration not stated)
3%	O=c1[nH][nH]c2cc(=O)n(-c3cccc(C(F)(F)F)c3)nc12
-1%	Cc1ccc(N(C(=O)c2csnn2)C(C(=O)NC(C)(C)C)c2cccnc2)cc1 (configuration not stated)
14%	Fc1ccccc1N1CCN(Cc2cc(-c3ccccc3)on2)CC1
-1%	c1ccc(-c2nc(NCC3CCCO3)c3oc4ccccc4c3n2)cc1 (configuration not stated)
-9%	CCOC(=O)C1=C(O)CSC1=Nc1cccc2ccccc12
-5%	CC(=O)Nc1ccc(/C=C/c2ccc3cccc([N+](=O)[O-])c3n2)cc1
-4%	CC1Oc2ccccc2C=C1/C=N/NC(=O)c1ccccc1O (configuration not stated)
-15%	CCOc1ccccc1/C=N/n1c(COc2ccccc2)n[nH]c1=S
4%	O=C(CO/N=C/c1ccc(Cl)cc1Cl)NNC(=O)c1cccc(Cl)c1
-3%	O=C(CSc1nc2ccccc2c(=O)n1CCCO)NCc1ccccc1
-9%	CC(C)C(=O)N1CCC2(CC1)Oc1ccc(F)cc1C(=O)C21CC(c2ccc(Cl)cc2)=NO1 (configuration not stated)
11%	COc1cccc(NC(=O)CCNC(=O)c2ccccc2Cl)c1
21%	CCOc1ccc(C2C(C(=O)c3ccco3)=C(O)C(=O)N2Cc2cccnc2)cc1OC (configuration not stated)
-18%	Cc1cccc(CSc2[nH]c(=O)ncc2C)c1
2%	Cc1ccc(Nc2nc3ccccc3c(=O)[nH]2)cc1C
-4%	Cc1ccc(S(=O)(=O)Nc2ccc(NC(=O)c3ccc(F)cc3)cc2)cc1
-1%	CCc1ccc(-c2cc(C)no2)cc1S(=O)(=O)N1CCN(c2ccc(OC)cc2)CC1
-4%	CC(C)Cn1c2c(c(O)c(C(=O)Nn3c(Cc4ccccc4)nc4ccccc4c3=O)c1=O)CCCC2
-29%	O=C(O)c1ccc(N2CCN(C(c3ccccc3)c3ccccc3)CC2)c([N+](=O)[O-])c1
14%	COC(=O)c1nnn(-c2nonc2N)c1CN1CCCC1
-16%	CC(C)(C)C(=O)NCCc1nc2ccccc2n1CC(=O)c1ccc(Cl)cc1
0%	CCN(CC)S(=O)(=O)c1ccc(O)c(C(=O)OCC(=O)N2c3ccccc3CC2C)c1 (configuration not stated)
9%	Cc1ccccc1C1NC(=O)c2ccccc2O1 (configuration not stated)
-6%	COc1ccc2c3c([nH]c2c1)[C@H]1C[C@H]2[C@H](C[C@@H](O)[C@H](OC)[C@H]2C(=O)O)CN1CC3
15%	C=CCNC(=O)COC(=O)c1ccc(Cl)c(S(=O)(=O)N(Cc2ccccc2)c2ccccc2)c1
-18%	COC(=O)c1ccc(NC(=O)Nc2ccc([N+](=O)[O-])cc2)cc1
-7%	O=C(CN1CCN(C(=O)c2c(F)cccc2F)CC1)Nc1ccccc1C(F)(F)F
8%	O=C(Cn1c(=O)n(-c2ccc(F)cc2)c(=O)c2sc3ccccc3c21)NC1CCCC1
-10%	O=C(O)CCCc1c(-[n+]2ccccc2)[nH]c2ccccc12
-16%	O=C(CSc1nncs1)NC(=O)NCc1ccccc1
9%	CCC1CCCCN1Cc1ccc(OC)c(OC)c1 (configuration not stated)
-8%	CCOc1ccc(S(=O)(=O)NCCC(=O)NCc2ccncc2)cc1
2%	COc1ccc(OCC(NS(=O)(=O)c2ccc(-n3cnnn3)cc2)C(C)C)cc1 (configuration not stated)
-15%	COc1cc2c(cc1OC)CN(C(=O)CSc1nnc(C)s1)CC2
-6%	CCN1CCN(C(c2cccc(OC)c2OC)c2nnnn2Cc2ccco2)CC1 (configuration not stated)
-1%	Cn1cnnc1Sc1ccc(C(=O)NCCC23CC4CC(CC(C4)C2)C3)cc1[N+](=O)[O-]
11%	COc1cccc(N2CCN(c3ncc4c(n3)CCN(Cc3ccc(Br)cc3)C4)CC2)c1
-6%	CC1(C)Cc2ccccc2C2CC(O)C(=O)N21 (configuration not stated)
-3%	CCN(C(=O)CSc1ccc2ccccc2n1)C1CCS(=O)(=O)C1 (configuration not stated)
-10%	CCCCOc1ccc(C(=O)N2CC(=O)Nc3ccc(Br)cc3C2c2ccc(F)cc2)cc1 (configuration not stated)
3%	Cc1cc(=O)[nH]c(SCC(=O)Nc2ccnc3ccccc23)n1
-22%	Cc1ccc(NC(=O)C2CC(=O)N(Cc3ccccc3)C2)cc1S(=O)(=O)N1CCCCCC1 (configuration not stated)
8%	CN1C(C(=O)c2ccccc2)=C(NC(=O)c2ccccc2Br)c2ccccc2S1(=O)=O
-4%	Cn1c2ccccc2c(=O)c2c(O)cccc21
-11%	CN1CC(=O)N(CC(=O)Nc2cc(Cl)cc(Cl)c2)C1=O
5%	Cc1ccc(S(=O)(=O)NCC(NCc2ccc(F)cc2)c2ccccc2)cc1 (configuration not stated)
-27%	COc1ccc(OCCCC(=O)ON=C(N)c2ccccc2C)cc1
?	CN(C)c1ccc(-c2nc(NCc3cccnc3)c3ccccc3n2)cc1

Three compounds out of the list, sorted by count of non-hydrogen atoms, falling:
VDR inhibitor	Structure
-22%	Cc1ccc(NC(=O)C2CC(=O)N(Cc3ccccc3)C2)cc1S(=O)(=O)N1CCCCCC1 (configuration not stated)
-27%	COc1ccc(OCCCC(=O)ON=C(N)c2ccccc2C)cc1
-4%	Cn1c2ccccc2c(=O)c2c(O)cccc21
